RGS16-Gao HTS – modulators of RGS16 binding to Galphao, primary screen, biochemical, human proteins, multiplexed bead flow cytometry; 220,000 tested, 0.38% active; AID 1441, 2008; bead-based flow cytometry RGS16-Galphao binding, fluorescence; actives lie on both sides; binding response (% of control), % at 10 µM;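 active = below 25% or above 175%, edge rows of some plates excepted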;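 note: Galphao activated by GDP with aluminum fluoride before binding; 100% = wells without compound and 0% = beads without RGS; some results beyond the cut were filed as inactive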
Target sequence (O15492 whole entry, looked up): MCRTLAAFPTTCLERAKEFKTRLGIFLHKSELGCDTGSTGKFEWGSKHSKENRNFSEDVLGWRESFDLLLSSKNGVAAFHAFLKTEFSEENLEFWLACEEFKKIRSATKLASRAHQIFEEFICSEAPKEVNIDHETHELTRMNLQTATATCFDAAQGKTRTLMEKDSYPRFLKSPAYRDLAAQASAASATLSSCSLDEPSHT
Target sequence (P09471 whole entry, looked up): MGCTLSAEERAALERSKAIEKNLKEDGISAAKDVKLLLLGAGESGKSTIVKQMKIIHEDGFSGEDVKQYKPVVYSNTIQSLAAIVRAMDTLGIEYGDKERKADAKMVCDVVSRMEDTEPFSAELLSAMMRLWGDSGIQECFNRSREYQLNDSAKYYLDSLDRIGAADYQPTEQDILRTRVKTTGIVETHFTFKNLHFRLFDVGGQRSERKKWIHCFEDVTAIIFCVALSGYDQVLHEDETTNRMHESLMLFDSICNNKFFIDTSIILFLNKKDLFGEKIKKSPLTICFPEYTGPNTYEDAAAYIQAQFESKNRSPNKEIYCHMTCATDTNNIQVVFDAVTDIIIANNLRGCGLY
GALR2 agonist – GALR2 receptor agonists, primary screen, cell-based; Galanin receptor type 2 (Homo sapiens), O43603; GALR2-expressing cells, agonist activation read-out; activation, %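 (tested at 5 µM)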; 140,000 tested, 0.48% active; AID 803, 2007;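 active = above mean plus 3 SD of all compounds, about 5% in these data, not always enough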;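 note: 0% = vehicle buffer wells and 100% = reference agonist at full effect; tested in CHO reporter cells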
Target sequence (O43603 whole entry, looked up): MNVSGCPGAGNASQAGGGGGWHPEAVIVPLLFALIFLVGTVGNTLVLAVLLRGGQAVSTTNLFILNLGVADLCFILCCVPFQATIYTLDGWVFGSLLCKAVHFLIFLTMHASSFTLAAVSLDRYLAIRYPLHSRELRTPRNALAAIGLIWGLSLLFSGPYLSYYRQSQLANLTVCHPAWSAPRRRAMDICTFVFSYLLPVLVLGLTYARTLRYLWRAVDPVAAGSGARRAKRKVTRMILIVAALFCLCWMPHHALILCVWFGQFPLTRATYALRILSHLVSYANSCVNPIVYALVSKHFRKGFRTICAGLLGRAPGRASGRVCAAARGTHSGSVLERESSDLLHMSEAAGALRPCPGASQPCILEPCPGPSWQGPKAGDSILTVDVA
INS promoter inh – inhibitors of insulin promoter-driven GFP, primary screen, imaging, TRM-6 cells (human fetal islet line), eGFP reporter, cell count; reporter expression induced with tamoxifen; inhibition, % at 2 µM; 130,000 tested, 0.9% active;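 active = inhibition above the mean plus 3 SD, with well images judged a real hit on visual review, cut at about 60% in these data, passing the limit was not always enough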
HSV augment – enhancers of HSV replication in host cells, fold increase, host cell viability. HSV replication augmentation in cells. maximum fold increase. 220,000 tested, 0.005% active. AID 1956, 2009;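 active = peak rise of 1.5-fold or more in the series; tested in PC3 cells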;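 note: first round at 10 µM; read as green reporter fluorescence; hits show the peak of a series up to 25 µM; 1 = signal of infected wells without compound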
PKD1 inh – inhibitors of human PKD1 kinase, biochemical, fluorescence polarization; Serine/threonine-protein kinase D1 (Homo sapiens), Q15139; PKD1 kinase fluorescence polarization assay; inhibition, %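 (about 10 µM by stock and volumes)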; 200,000 tested, 0.056% active;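 active = inhibition of 50% or more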;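 note: controls were vehicle for no effect and a reference inhibitor for full effect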
INS promoter inh cell count – further read-out of INS promoter inh, marked with its call; normalized cell count, %; measured here: cell count, toxicity; reference of the scale not given here;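 cells exposed to compound for 48 h; stained nuclei by imaging scaled within each plate; lower means fewer cells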
HSV augment primary fold – recorded beside HSV augment, whose call it bears; fold increase; compound at 10 µM; measured here: primary screen fold increase 10 uM; tested in PC3 cells;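 GFP signal in the first replicate; 1 = infected wells without compound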
* hit, by the source's call; i = inactive; x = not tested or not shown; [ ] = another dose, or the depositor's remark. No enrichment for hits. Share with any hit: about 1.3%.

SMILES	RGS16-Gao HTS	GALR2 agonist	INS promoter inh	INS promoter inh cell count	HSV augment	HSV augment primary fold	PKD1 inh
Cc1cc(C)c2c(=O)[nH]c(SCc3ccc([N+](=O)[O-])cc3)nc2n1	100	x	0	138	i	0.92	5
COc1ccc(NC(=O)CC2C(=O)N(C)C(=S)N2CCc2ccccc2F)cc1 (centres undefined)	100	x	x	x	i	0.96	1
CN1CCN(Cc2cc(=O)oc3ccc(Cl)cc23)CC1	103	-2.2	-50	57	i	1	13
Cc1ccc2c(CC(=O)NCc3cccs3)coc2c1	99	-0.5	-7	131	i	0.98	6
CNC(=S)N(Cc1ccc(OC)cc1)Cc1cc2cc(C)ccc2[nH]c1=O	106	x	x	x	i	0.75	-11
O=C(CCN1C(=O)/C(=C/C=C/c2ccccc2)SC1=S)Nc1nccs1	95	-1.5	x	x	x	x	-9
O=C(O)c1ccc2c(c1)C(=O)N(c1cc(C(=O)O)ccc1Br)C2=O	110	-0.7	6	85	i	0.89	6
O=[N+]([O-])c1ccc(-c2c(O)c3ccccc3c3nc4ccccc4nc23)cc1	100	x	x	x	i	0.85	2
O=C(N/N=C/c1ccccn1)C(=O)N1CCCCCC1	101	x	x	x	i	0.97	x
Cc1c(NC(=O)c2cn3ccccc3n2)cccc1-n1cnnn1	90	x	x	x	i	1.2	x
Cc1ccc(-n2ncc3c(N4CCN(c5ccccc5)CC4)ncnc32)c(C)c1	105	-0.4	-35	81	i	0.83	-1
O=C(/C=C/c1ccccc1)Nc1cccc(S(=O)(=O)Nc2ccccc2F)c1	39	-0.5	8	69	i	0.79	2
Cc1csc(SC(C)C(=O)Nc2ccc(Cl)cn2)n1 (centres undefined)	99	-1.4	11	91	i	0.98	-7
CCCNC(=O)CSc1nc(-c2cccs2)cc(C(F)(F)F)n1	103	-1.6	19	113	i	0.94	-3
COC(=O)CSc1nc(C)c2ccc(OC)cc2n1	106	-0.3	-438	69	i	0.75	-2
CC(C)C(=O)Nc1cccc(C(=O)Nc2nccs2)c1	102	-3.2	-6	105	i	0.98	-2
CC(=O)c1ccc(OC(=O)CCN2c3ccccc3Sc3ccccc32)cc1	99	-1.9	34	64	i	1	-13
CCOC(=O)C1CCCN(c2c(C(=O)c3ccccc3)cnc3ccccc23)C1 (centres undefined)	102	x	4	109	i	0.87	6
O=C(COc1cccnc1[N+](=O)[O-])Nc1cccc(S(=O)(=O)N2CCOCC2)c1	93	x	x	x	i	1	5
CSc1ccccc1NC(=O)CSCc1ccccc1Br	102	-1.6	-31	106	x	x	0
Cc1ccc(C2NC(=O)Cc3ccccc32)cc1 (centres undefined)	112	-0.7	29	88	i	0.96	5
COc1ccc(COC(=O)c2ccc3c(=O)n4c(nc3c2)CCC4)cc1F	103	x	x	x	i	0.94	x
O=C(COC(=O)/C=C/c1ccco1)NCc1ccccc1Cl	108	x	17	61	i	1	-7
CNc1sc(C(=O)c2cccs2)c(N)c1-c1nc2ccccc2s1	99	-1.0	-2	62	i	1.1	-7
Cc1ccc(NC(=O)CCn2nc(C)cc2C)cc1	109	-0.3	-6	187	i	0.95	-6
CC(C)(C)c1cc(C(=O)NCCN2CCCC2)cc(C(C)(C)C)c1	95	x	x	x	i	0.71	-3
CC(=O)C1=NN(c2ccccc2)C2(S1)S/C(=C\c1ccccc1)C(=O)N2c1ccccc1 (centres undefined)	101	-0.8	-27	113	i	0.8	-7
O=C1CCC/C(=N/NC(=O)c2cc(NS(=O)(=O)c3cccs3)cc(NS(=O)(=O)c3cccs3)c2)C1	101	x	x	x	i	0.74	x
COc1ccc(-c2nc(S(=O)(=O)c3ccccc3)c(N3CCOCC3)o2)cc1	96	-0.7	x	x	i	0.8	-10
CCOC(=O)CN/C=C(\C#N)c1ccc(F)cc1	104	x	x	x	i	0.91	4
Cc1ccc(SCC(=O)c2sc(-c3ccccc3)nc2C)cc1	110	-3.4	27	108	i	0.9	-3
CC1CCC(C(C)C)C(=O)/C1=C\c1ccc(NC(=O)CCC(=O)O)cc1 (centres undefined)	99	x	x	x	i	0.86	-5
Cc1nc([N+](=O)[O-])cn1C(C)C	93	x	x	x	i	0.99	x
CCOC(=O)C1=C(C)N(Cc2ccc(C(=O)O)cc2)C(=O)NC1c1ccc([N+](=O)[O-])cc1 (centres undefined)	104	-1.0	5	112	i	0.98	-2
CCn1cc(C(=O)NCc2ccccn2)c(=O)c2cc(F)c(N3CCN(C)CC3)cc21	101	x	x	x	i	0.86	x
CC(CN1CCN(C)CC1)OC(=O)c1ccc(Cl)cc1Cl (centres undefined)	109	-0.9	0	145	i	0.68	-10
CC(C)CNC(C(=O)Nc1ccc([N+](=O)[O-])cc1Br)c1ccccc1 (centres undefined)	100	0.1	26	83	i	1	-10
O=C1/C(=C\Nc2ccc(Cl)cc2)CCN1c1ncccn1	103	-1.0	40	123	i	1.2	11
COc1ccc(/C(C)=N\NC(=O)c2ccc3c(c2)OCO3)cc1OC	117	x	40	55	i	0.95	1
COC(=O)c1cc2nc(-c3ccc(OC)cc3)cc(C(F)(F)F)n2n1	86	0.3	x	x	i	0.95	4
CCC(CC)C(=O)Nc1nc(-c2ccc3c(c2)CCN3C(=O)C2CC2)c(C)s1	97	-0.9	-30	51	i	0.88	-2
CC(C)NCC(O)COCCOc1ccc(C(C)(C)C)cc1 (centres undefined)	105	0.0	x	x	i	0.92	4
Cc1ccc(S(=O)(=O)Cc2ccc(C(=O)NCCCN3CCCC3=O)o2)cc1	99	-0.3	x	x	i	0.96	2
CN(C(=O)NC(=O)C1=C(N2CCOCC2)/C(=C/c2ccccc2)CC1)S(C)(=O)=O	103	-3.0	11	137	i	1.3	-3
CCOC(=O)CSC1=C(C#N)C(c2ccc(Cl)cc2)C(C(=O)OC)C(=O)N1 (centres undefined)	102	-1.8	-12	98	i	0.96	-2

Whole records from above. Order of screens: RGS16-Gao HTS | GALR2 agonist | INS promoter inh | INS promoter inh cell count | HSV augment | HSV augment primary fold | PKD1 inh
Cc1ccc(SCC(=O)c2sc(-c3ccccc3)nc2C)cc1 in the list: 110 | -3.4 | 27 | 108 | i | 0.9 | -3
CC(C)CNC(C(=O)Nc1ccc([N+](=O)[O-])cc1Br)c1ccccc1 (centres undefined) in the list: 100 | 0.1 | 26 | 83 | i | 1 | -10

The list continues:
SMILES	RGS16-Gao HTS	GALR2 agonist	INS promoter inh	INS promoter inh cell count	HSV augment	HSV augment primary fold	PKD1 inh
Cc1ccnc(NC(=O)CCCOc2ccc(Cl)cc2C)c1	98	x	x	x	i	0.84	-3
COc1ccccc1NC(=O)COc1ccc(CO)cc1Cl	126	-2.0	-46	112	i	0.92	6
O=C(Nc1ccc(Br)cc1)Nc1ccccc1Cl	93	x	x	x	i	1.1	x
CC(=O)c1ccc(NC(=S)N2CCC(Cc3ccccc3)CC2)cc1	103	x	x	x	i	1.3	x
Nc1nc(/C=C/c2ccc(F)cc2)nc(-c2ccccc2O)n1	191	1.7	-21	82	i	0.91	-11
Fc1ccccc1-c1nnc2c3ccccc3nc(N3CCOCC3)n12	92	-0.9	x	x	i	0.85	-16
CCCN1C2=C(C(=O)CC(C)(C)C2)C(c2ccc(F)cc2)C2=C1c1ccccc1C2=O (centres undefined)	99	0.0	7	85	i	0.9	-8
COc1cc(C2CC(=O)c3cnc(NC(C)=O)nc3C2)cc(OC)c1OC (centres undefined)	110	-2.0	33	153	i	0.86	-9
COc1cccc(N=c2oc3ccccc3cc2-c2nc3ccccc3[nH]2)c1	111	-1.3	83*	150*	i	0.91	-7
C=CCc1cc(/C=C2/NC(=O)N(CC)C2=O)cc(OCC)c1OCc1ccc(C(=O)O)cc1	47	0.1	20	62	i	0.96	14
Cc1ccc(NCN2C(=O)C(=O)c3ccccc32)nc1	159	0.8	15	82	i	1.1	-9
COc1ccc(-c2nnn(CC(=O)N3CCN(c4ccccc4OC)CC3)n2)cc1OC	108	x	x	x	i	1.1	1
Cc1cc(/C=C(\C#N)C(=O)NC2CC2)c(C)[nH]1	100	-1.3	0	128	i	0.96	-9
O=C1C=CC(=O)N1c1ccc(Sc2ccc([N+](=O)[O-])cc2)cc1	77	x	x	x	i	0.9	x
O=C(NCc1ccccc1)N1CCn2c(nc3ccccc32)C1	91	1.9	16	162	i	1.1	4
Cc1nn(C)cc1CNC(=O)C1C2CCC(O2)C1C(=O)O (centres undefined)	98	-0.8	x	x	i	0.85	-2
CCCC(=O)Nc1cc(=O)n(C)c(=O)n1C	107	-2.5	x	x	i	1.1	1
O=C(Nc1cccc(S(=O)(=O)N2CCOCC2)c1)c1cnccn1	102	x	x	x	i	0.92	-5
Fc1ccccc1Cc1noc(CN(Cc2ccccn2)CC2CCCO2)n1 (centres undefined)	101	x	x	x	i	0.93	-6
O=C(NCCO)C(F)(F)C(F)(F)C(F)(F)OC(F)(C(=O)NCCO)C(F)(F)F (centres undefined)	200	-3.6	-13	80	i	1	-1
CC(C)c1ccc(NS(=O)(=O)c2cn(C)c(=O)n(C)c2=O)cc1	102	-3.7	x	x	i	0.99	-2
COc1ccc(-c2cnc(OC(C)(C)C)nc2OC(C)(C)C)cc1OC	106	-2.1	43	111	i	1	0
CCc1nnc(NC(=O)[C@@H](NC(=O)c2cccc(C)c2)C(C)C)s1	122	-0.4	x	x	i	0.83	-8
O=C(C1CCCCC1)N1CCC(c2nc3ccccc3[nH]2)CC1	130	-1.3	6	144	i	1.1	-9
Cc1ccc(S(=O)(=O)Nc2ccc3c(c2)nc(CN2CCCC2)n3C)cc1	105	1.2	-17	122	i	1	-4
COc1ccccc1N1CCN(S(=O)(=O)c2c(C)[nH]c(=O)[nH]c2=O)CC1	97	x	x	x	i	0.99	2
COc1ccc(-c2csc(Nc3ccc(S(N)(=O)=O)cc3)n2)cc1OC	84	x	-7	75	i	0.96	5
CN1CCN(C(=O)C2CC(c3ccc(F)cc3)=NO2)CC1 (centres undefined)	102	-3.0	x	x	i	1.3	-6
Cc1cc(-c2nn3c(-c4ccccc4)nnc3s2)c2ccccc2n1	95	1.9	12	134	i	0.82	10
COc1ccc(CN2C(=O)[C@@H]3C(c4ccc(F)cc4)=NO[C@@H]3C2=O)cc1	97	-0.2	-38	102	i	0.96	-1

4 consecutive records already listed, quoted:
SMILES	RGS16-Gao HTS	GALR2 agonist	INS promoter inh	INS promoter inh cell count	HSV augment	HSV augment primary fold	PKD1 inh
COc1ccc(-c2csc(Nc3ccc(S(N)(=O)=O)cc3)n2)cc1OC	84	x	-7	75	i	0.96	5
CN1CCN(C(=O)C2CC(c3ccc(F)cc3)=NO2)CC1 (centres undefined)	102	-3.0	x	x	i	1.3	-6
Cc1cc(-c2nn3c(-c4ccccc4)nnc3s2)c2ccccc2n1	95	1.9	12	134	i	0.82	10
COc1ccc(CN2C(=O)[C@@H]3C(c4ccc(F)cc4)=NO[C@@H]3C2=O)cc1	97	-0.2	-38	102	i	0.96	-1

Carrying on.
SMILES	RGS16-Gao HTS	GALR2 agonist	INS promoter inh	INS promoter inh cell count	HSV augment	HSV augment primary fold	PKD1 inh
Nc1c(C=C2C=CC(=O)C=C2)c(=O)nc2snc(SCc3ccccc3)n12	103	x	x	x	i	1.1	x
CN(C)c1nnnn1-c1ccc(Oc2ccccc2)cc1	101	x	-38	128	i	1	2
COC(=O)c1ccccc1NC(=S)N(Cc1ccc2c(c1)OCO2)Cc1cc2cc(C)ccc2[nH]c1=O	264*[activator]	-1.8	-30	76	i	0.9	2
COc1cc(OC)c(-c2nc3cnccc3n2C)cc1OC	97	-2.9	38	85	i	0.92	2
O=C(c1cccs1)N1CCn2c1nc1ccccc12	91	-2.5	-18	123	i	1.1	-4
CCN(CC)S(=O)(=O)c1cc(NC(=O)COC(=O)CCC(=O)c2ccc(F)cc2)ccc1C	100	0.4	-13	119	i	1	11
O=C(COC(=O)c1ccc(S(=O)(=O)NCc2ccco2)cc1)Nc1ncc(Cl)cc1Cl	96	-1.9	-41	117	i	1.1	-2
Cc1ccc(-n2c(C)nc3oc4ccccc4c(=O)c3c2=O)cc1	71	-4.5	9	125	i	0.95	-10
COc1ccc(C2C(C(=O)N3CCOCC3)CCC(=O)N2c2ccc(OC)cc2)cc1 (centres undefined)	104	-0.6	x	x	i	1.1	5
CC(C)CN(CC(C)C)S(=O)(=O)c1cc([N+](=O)[O-])ccc1N1CCCCCC1	101	-0.6	x	x	i	1.1	-8
CCOC(=O)N1CCN(C(=O)c2ccc3nc(C)sc3c2)CC1	104	-2.7	71*	36*	i	1.1	-6
CCCNC(=O)Cn1cnc2sc(C(=O)Nc3cc(OC)c(OC)c(OC)c3)c(C)c2c1=O	101	-1.6	x	x	i	0.95	0

Screens (PubChem)
